Source: PubChem BioAssay
GALR2 ag = activates the human galanin receptor 2 | O43603 | GALR2-expressing cells, agonist activation read-out | activation, %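 (tested at 5 µM)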 | 140,000 tested, 0.48% active | AID 803;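 active = above mean plus 3 SD of all compounds, about 5% in these data, not always enough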;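 note: 0% = vehicle buffer wells and 100% = reference agonist at full effect; tested in CHO reporter cells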
Target sequence (O43603 whole entry, looked up): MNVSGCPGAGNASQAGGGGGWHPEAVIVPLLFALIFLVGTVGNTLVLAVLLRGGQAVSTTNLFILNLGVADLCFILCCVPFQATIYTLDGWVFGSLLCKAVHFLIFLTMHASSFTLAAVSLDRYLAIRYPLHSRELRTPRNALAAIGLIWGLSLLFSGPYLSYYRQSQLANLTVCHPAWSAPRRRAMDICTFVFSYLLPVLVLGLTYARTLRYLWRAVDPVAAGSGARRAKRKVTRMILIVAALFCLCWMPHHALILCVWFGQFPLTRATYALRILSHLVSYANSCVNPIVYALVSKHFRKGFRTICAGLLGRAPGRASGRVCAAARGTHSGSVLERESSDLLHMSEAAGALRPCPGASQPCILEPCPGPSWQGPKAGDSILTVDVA
HSV augment = HSV replication enhancement; maximum fold increase; 220,000 tested, 0.005% active; AID 1956; HSV replication augmentation in cells, fold increase;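 active = peak rise of 1.5-fold or more in the series; tested in PC3 cells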;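 note: first round at 10 µM; read as green reporter fluorescence; hits show the peak of a series up to 25 µM; 1 = signal of infected wells without compound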
INS promoter inh = TRM-6 insulin promoter activity inhibition. inhibition, % at 2 µM. TRM-6 cells (human fetal islet line), insulin promoter-eGFP reporter, imaging; reporter expression induced with tamoxifen. 130,000 tested, 0.9% active;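 active = inhibition above the mean plus 3 SD, with well images judged a real hit on visual review, cut at about 60% in these data, passing the limit was not always enough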
PKD1 inh = blocks activity of human protein kinase D1 | AID 797 | inhibition, %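 (about 10 µM by stock and volumes)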 | 200,000 tested, 0.056% active | PKD1 kinase fluorescence polarization assay | Q15139;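 active = inhibition of 50% or more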;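 note: controls were vehicle for no effect and a reference inhibitor for full effect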
RGS16-Gao HTS = RGS16-Galphao interaction regulator (human); bead-based flow cytometry RGS16-Galphao binding, fluorescence; actives lie on both sides; binding response (% of control), % at 10 µM; O15492+P09471; AID 1441; 220,000 tested, 0.38% active;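 active = below 25% or above 175%, edge rows of some plates excepted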;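 note: Galphao activated by GDP with aluminum fluoride before binding; 100% = wells without compound and 0% = beads without RGS; some results beyond the cut were filed as inactive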
Target sequence (O15492 whole entry, looked up): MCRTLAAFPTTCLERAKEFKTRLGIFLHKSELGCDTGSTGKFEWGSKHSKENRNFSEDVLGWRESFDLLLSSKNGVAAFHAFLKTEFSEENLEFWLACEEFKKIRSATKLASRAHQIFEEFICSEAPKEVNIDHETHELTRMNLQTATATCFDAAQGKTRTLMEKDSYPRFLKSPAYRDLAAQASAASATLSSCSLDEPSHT
Target sequence (P09471 whole entry, looked up): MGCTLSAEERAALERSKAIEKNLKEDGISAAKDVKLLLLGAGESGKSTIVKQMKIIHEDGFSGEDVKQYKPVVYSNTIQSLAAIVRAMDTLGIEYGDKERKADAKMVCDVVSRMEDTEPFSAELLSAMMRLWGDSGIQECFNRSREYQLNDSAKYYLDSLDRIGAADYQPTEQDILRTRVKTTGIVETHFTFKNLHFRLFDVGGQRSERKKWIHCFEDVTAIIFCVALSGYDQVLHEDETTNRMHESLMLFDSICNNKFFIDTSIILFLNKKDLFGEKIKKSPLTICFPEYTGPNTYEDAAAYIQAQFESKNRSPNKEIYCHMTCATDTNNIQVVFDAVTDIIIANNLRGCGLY
INS promoter inh cell count = also measured in INS promoter inh; calls as there; normalized cell count, %; measured here: cell count, toxicity; reference of the scale not given here;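 cells exposed to compound for 48 h; stained nuclei by imaging scaled within each plate; lower means fewer cells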
HSV augment primary fold = also measured in HSV augment; calls as there; fold increase; compound at 10 µM; measured here: primary screen fold increase 10 uM; tested in PC3 cells;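 GFP signal in the first replicate; 1 = infected wells without compound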
Numbers without * were called inactive; i = inactive; x = no result given.

SMILES	GALR2 ag	HSV augment	HSV augment primary fold	INS promoter inh	INS promoter inh cell count	PKD1 inh	RGS16-Gao HTS
COc1cccc(N2C(=O)CC(N3CCc4ccccc43)C2=O)c1 (configuration not stated)	-0.6	i	1	18	125	-5	261
Nc1nonc1C(=O)NCCNc1ccc([N+](=O)[O-])cn1	x	i	1	-51	89	-1	100
COc1ccc(N2C(=O)N(Cc3ccccc3F)c3ccccc3S2(=O)=O)cc1	x	i	0.94	-136	39	-1	140
COc1ccc([C@H]2C=C3CN(C(=O)OC(C)(C)C)S(=O)(=O)[C@H]3C[C@H]2OC(=O)c2ccc(C(F)(F)F)cc2)cc1	x	i	0.93	x	x	x	80
O=c1cc(/C=C/c2c(F)cccc2Cl)[nH]c2ccccc12	-1.2	i	0.92	x	x	-11	99
CC(C)(C)c1ccc(C(=O)Nc2ccc(CN3CCS(=O)(=O)CC3)cc2)cc1	x	i	0.92	x	x	x	102
COc1ccc(N(CC(=O)Nc2ccccc2SC)S(C)(=O)=O)cc1OC	-0.5	i	0.87	i	39	0	108
CCOc1ccccc1Nc1ccc(C(=O)O)cc1[N+](=O)[O-]	x	i	0.96	x	x	-4	102
Cc1ccc(C(=O)NC(C)c2ccc3c(c2)OCO3)s1 (configuration not stated)	x	i	0.97	0	130	-5	106
CC(C)C(NC(=O)OCc1ccccc1)C(=O)NCC(=O)OC(C)(C)C (configuration not stated)	-3.4	i	0.84	-29	102	-4	92

Some of the entries so far, with two lines to a compound.
Every second line gives: GALR2 ag | HSV augment | HSV augment primary fold | INS promoter inh | INS promoter inh cell count | PKD1 inh | RGS16-Gao HTS
O=c1cc(/C=C/c2c(F)cccc2Cl)[nH]c2ccccc12
    -1.2 | i | 0.92 | x | x | -11 | 99
CC(C)(C)c1ccc(C(=O)Nc2ccc(CN3CCS(=O)(=O)CC3)cc2)cc1
    x | i | 0.92 | x | x | x | 102
COc1ccc(N(CC(=O)Nc2ccccc2SC)S(C)(=O)=O)cc1OC
    -0.5 | i | 0.87 | i | 39 | 0 | 108
CCOc1ccccc1Nc1ccc(C(=O)O)cc1[N+](=O)[O-]
    x | i | 0.96 | x | x | -4 | 102
Cc1ccc(C(=O)NC(C)c2ccc3c(c2)OCO3)s1 (configuration not stated)
    x | i | 0.97 | 0 | 130 | -5 | 106

The listing continues:
SMILES	GALR2 ag	HSV augment	HSV augment primary fold	INS promoter inh	INS promoter inh cell count	PKD1 inh	RGS16-Gao HTS
O=C1c2cc([N+](=O)[O-])cc3cc([N+](=O)[O-])cc(c23)C(=O)N1c1ccccn1	-1.3	i	1.1	-119	56	-10	107
CCNC(=S)NC1CC2CCCC(C1)N2Cc1ccco1 (configuration not stated)	-3.5	i	0.73	x	x	2	98
Cc1cccc(C)c1Nc1c(-c2ccsc2)nc2ncccn12	0.3	i	0.97	-81	70	-7	104
CCC(=O)NCCSc1c[nH]c2ccccc12	-1.0	i	1	x	x	-3	105
OCC#Cc1ncc(C(F)(F)F)cc1Cl	x	i	0.78	x	x	-9	104
CCCN1C(=O)c2cc(C(=O)Nc3ccccc3OC)ccc2C1Nc1ccccc1OC (configuration not stated)	x	i	0.67	x	x	x	105
CC(C(=O)O)N1C(=O)CSC1=S (configuration not stated)	-2.0	i	0.99	x	x	21	103
Cc1cc(C)n(-c2ccc(C(=O)OCC(=O)NC(c3ccccc3)c3ccccc3)cc2)n1	-0.8	x	x	23	107	-5	111
CCOC(=O)c1ccc(NS(=O)(=O)c2cnc[nH]2)cc1	-1.2	i	1	x	x	-6	100
O=C(CCC(=O)N(CC(=O)NC1CCCC1)Cc1ccc2c(c1)OCO2)Nc1ccccn1	-0.3	i	0.99	x	x	8	103
Cc1cc2cc(CNC(=O)Cc3ccc([N+](=O)[O-])cc3)ccc2n1C	x	i	1	-62	73	1	53
CCCc1cc(NCCCn2ccnc2)n2nc(C)c(-c3ccccc3)c2n1	x	i	0.86	x	x	x	96
CCCN(CCO)Cc1cccc(Oc2ccccc2)c1	0.2	i	0.66	0	79	-4	114
CCCCCCn1c2c(c(=N)c3c1CCC3)CCC2	-1.5	i	0.85	4	56	-4	101
Cc1ccccc1Nc1nc(N)nc(COC(=O)C(NC(=O)c2ccco2)C(C)C)n1 (configuration not stated)	-0.4	i	0.7	-29	55	2	100
Cn1c2c(c(=O)n3ncnc13)CCCC2	x	i	1	x	x	x	104
CCSc1nc(C2CC2)cc(-c2cccs2)c1C#N	0.0	i	0.92	23	165	-6	76
CC(C)(C)C(=O)NNC(=O)c1cc(C(C)(C)C)nn1Cc1ccccc1	x	i	0.99	x	x	x	105
N#C/C=C(/N)c1ccc(Br)cc1	-0.4	i	1	23	97	-11	100
COc1ccc(-n2c(C)cc(C(=O)COC(=O)c3cc(NC(=O)c4cccs4)c(OC)c(OC)c3)c2C)cc1	-0.2	i	0.97	x	x	-14	103
Cc1cc(C)c2c(=O)n(CC(=O)Nc3cccc(Cl)c3C)sc2n1	x	i	0.93	x	x	x	44
CNC(=O)C(=O)N/N=C/c1ccc(Br)cc1	x	i	0.98	71*	58*	-1	100
COc1ccc(-c2nnc(NC(=O)CSc3ccc(C)cc3)s2)cc1OC	-1.3	i	0.95	10	101	-3	109
COc1ccc2c(c1OC)C(=O)N(c1ccc(C)cc1)C2=O	x	i	1	-105	84	-2	101
CC1(OC(=O)C2CCCC2)C(=O)C=C2C=C(c3ccsc3)N(Cc3ccc4c(c3)OCO4)C=C2C1=O (configuration not stated)	x	i	1	x	x	x	100
Cc1cc(C)c2cc(C(c3nnnn3CC3CCCO3)N3CCN4CCCC4C3)c(=O)[nH]c2c1 (configuration not stated)	-0.9	i	0.66	x	x	-15	101
O=C(NCc1n[nH]c(=S)n1-c1ccccc1)c1ccc(S(=O)(=O)N2CCCCC2)cc1	x	i	1	x	x	1	93
CC(=O)CCN1CCOCC1	0.0	i	0.7	39	95	3	95
O=C(c1cc2ccccc2oc1=O)N(Cc1ccc(F)cc1)C1CCS(=O)(=O)C1 (configuration not stated)	x	i	0.95	x	x	x	119
CCC(=O)Nc1ccc(C(=O)CSc2nc3ccccc3cc2CC)cc1	-1.6	i	0.84	29	121	-2	183

Single records, from the list above:
`O=C(CCC(=O)N(CC(=O)NC1CCCC1)Cc1ccc2c(c1)OCO2)Nc1ccccn1` across the screens: GALR2 ag = -0.3; HSV augment = i; HSV augment primary fold = 0.99; INS promoter inh = x; INS promoter inh cell count = x; PKD1 inh = 8; RGS16-Gao HTS = 103
`CCCN(CCO)Cc1cccc(Oc2ccccc2)c1` across the screens: GALR2 ag = 0.2; HSV augment = i; HSV augment primary fold = 0.66; INS promoter inh = 0; INS promoter inh cell count = 79; PKD1 inh = -4; RGS16-Gao HTS = 114

Continued:
SMILES	GALR2 ag	HSV augment	HSV augment primary fold	INS promoter inh	INS promoter inh cell count	PKD1 inh	RGS16-Gao HTS
CCn1cc(C(=O)O)c(=O)c2cc(F)c(N3CCN(C(=S)NC(=O)c4ccccc4F)CC3)cc21	x	i	0.88	x	x	x	101
CCOc1ccc(C2CC(=O)NC3=C2C(=O)CCC3)cc1 (configuration not stated)	-0.7	i	0.9	x	x	-3	99
COc1ccc(-n2c(SCC(=O)Nc3nccs3)nc3sc4c(c3c2=O)CCN(C)C4)cc1	-2.6	i	0.99	x	x	-12	129
Cc1ccc(-n2nnnc2CN2CCCCC2)cc1	x	i	0.98	x	x	1	100
CCc1c(C(=O)Nc2nnc(C3CC3)s2)csc1C	3.1	i	1.1	57	118	-4	93
COc1cccc(-c2nc(CS(=O)(=O)CC(=O)NCc3ccccc3)c(C)o2)c1	-1.9	x	x	29	166	-3	102
CCN(CC)c1c([N+](=O)[O-])c(=O)sc2ccccc12	-1.9	i	1.1	-3	71	-7	88
O=C1CCCC2=C1C(c1ccco1)Nc1ccc3ccccc3c12 (configuration not stated)	-1.9	i	0.97	x	x	-4	59
Cc1ccsc1C1C(C(=O)O)c2ccccc2C(=O)N1C (configuration not stated)	-2.1	i	1	x	x	2	101
C#CCSc1n[nH]c(-c2ccco2)n1	x	i	0.92	x	x	x	99
CN(C(=O)COC(=O)c1ccc(=O)n(Cc2ccccc2)n1)c1ccccc1	x	i	1.1	18	87	6	102
Cc1ccccc1CN1CCN(Cc2ccccc2C(F)(F)F)CC1	-0.1	i	1.1	44	73	-10	98
O=C(Cn1nnc(-c2ccccc2)n1)Nc1ccc2c(c1)OCO2	-0.8	i	0.93	28	134	-4	101
O=c1[nH]c2cc3c(cc2cc1CN(CCc1ccccc1)Cc1nnnn1C1CCCC1)OCCO3	-0.3	i	1.1	46	140	-4	103
Cc1cc(C)nc(N2CCCC(C(=O)NCCC3=CCCCC3)C2)n1 (configuration not stated)	-1.8	i	1	x	x	0	90
N#CC1=C(N)Oc2cc(O)ccc2C1c1ccncc1 (configuration not stated)	-2.8	i	1.3	29	40	1	105
CCOC(=O)c1nc(NCc2cccc(OC)c2)c2ccccc2n1	x	i	1	x	x	1	98
Cn1c(SCC(=O)N2CCN(C(=O)c3ccco3)CC2)nnc1-c1ccc(NS(C)(=O)=O)cc1	x	i	0.93	x	x	-2	103
Clc1ccc(/C=C/c2ncc3ccccn23)cc1	x	i	0.94	41	140	-7	94
Fc1cccc(Cc2noc(CN3CCCCC3CCc3ccccn3)n2)c1 (configuration not stated)	x	i	0.98	x	x	7	113
COc1ccccc1-c1nnc(NC(=O)C(C)SC2=NCCS2)s1 (configuration not stated)	-3.0	i	0.98	x	x	5	47
CCOC(=O)c1csc(N)c1-c1ccc([N+](=O)[O-])cc1	x	i	1	x	x	x	101
O=C(COC(=O)c1ccc(S(=O)(=O)N2CCCC2)cc1)Nc1ccc(F)cc1F	x	i	0.99	x	x	8	98
CCC(=O)NC(C)C(c1cccs1)N1CCN(Cc2ccccc2)CC1 (configuration not stated)	-0.4	i	0.85	x	x	6	104
COc1ccc(-c2nnc(COc3ccc4ccccc4c3)o2)cc1OC	-1.4	i	0.88	21	100	-3	109
COc1ccc(CC2(CO)CCN(CC3=Cc4cc(Cl)ccc4OC3)CC2)cc1	x	i	0.86	13	91	-5	70
CCO[C@@H]1OC(C(=O)N2CCN(Cc3ccccc3)CC2)=C[C@H](c2cn(C(C)=O)c3ccccc23)[C@H]1CCCO	x	i	0.88	x	x	-5	101
C/C(=N\NC(=S)NCc1ccccc1)c1ccc(Br)cc1	x	i	0.85	x	x	3	90
CCCCSc1nc(C)c(C(C)=O)cc1C#N	-2.5	i	0.84	-15	86	7	101
COc1ccc(O)c(C2(O)C(=O)c3ccccc3C2=O)c1	x	i	1	x	x	x	99
Cc1onc(-c2c(F)cccc2Cl)c1C(=O)NCC1COc2ccccc2O1 (configuration not stated)	-2.3	i	1	x	x	9	100
Cc1cc(CC(C)C)n(-c2nc3ccccc3c(=O)n2OCc2ccccc2)n1	-0.9	i	0.64	-44	31	-5	98
COc1ccc(C)cc1S(=O)(=O)N1CCC(C(=O)N2CCOCC2)CC1	-1.0	i	0.96	9	141	-2	105
CC(C)(C)n1nnnc1C(c1cccc(C(F)(F)F)c1)N1CCOCC1 (configuration not stated)	-2.1	i	1.1	x	x	-2	101
CN(Cc1ccccc1)S(=O)(=O)c1ccc(N2CCOCC2)nc1	x	i	1.1	x	x	x	97
CCc1c(O)nc(SCC(=O)Nc2ccccc2C)[nH]c1=O	-1.0	i	0.76	x	x	6	100
O=C(COC(=O)c1cccc(F)c1)NC1CC1	x	i	1	-20	166	-4	104
O=C(CCCCCCN1C(=O)c2ccccc2C1=O)NC1CCCCC1	-2.0	i	1	-24	89	-6	106
COc1cc(S(=O)(=O)N2CCOCC2)ccc1NC(=O)CSc1nnc(N)s1	-2.0	i	0.89	-55	66	-5	107
CCCCNC(=O)NS(=O)(=O)c1ccc(NS(=O)(=O)c2ccccc2)cc1	-0.4	i	0.91	x	x	8	102
CC1CC(C)CN(CCCNC(=O)Cc2c(C(=O)O)[nH]c3ccccc23)C1 (configuration not stated)	-1.0	i	0.78	x	x	-8	101
CC1CCc2nc(NC(=O)c3cc(C(C)(C)C)nn3C)sc2C1 (configuration not stated)	x	i	0.9	x	x	x	99
CCOc1ccccc1N1CCN(Cc2ccc(Br)s2)CC1	0.2	i	1.1	x	x	-8	119
CCOC(=O)CCC(NC(=O)CCCCCCCC(=O)NC(CCC(=O)OCC)C(=O)OCC)C(=O)OCC (configuration not stated)	0.5	i	0.99	-10	97	4	98
O=C(O)CCNS(=O)(=O)c1ccc(Oc2ccccc2)cc1	-0.6	i	1.1	56	37	-2	100
CC(C)(C)NC(=O)CSc1nnc(Cc2ccccc2)n1CC1CCCO1 (configuration not stated)	x	i	1	x	x	-1	102
COc1ccc(NC(=O)N2CCN(C(=O)Nc3ccc(OC)cc3)CC2)cc1	x	i	0.94	x	x	x	105
CCCN(CCC)c1nc(Cl)nc(NCc2ccco2)n1	-0.6	i	0.95	-29	95	-6	102
Cc1ccc(CCNS(=O)(=O)c2cnc[nH]2)cc1	-1.2	i	0.97	x	x	2	98
CCN(CC)CCCC(C)NC(=O)c1cc(=O)c2ccccc2o1 (configuration not stated)	x	i	0.94	46	89	-4	86
